# total CFTR = total CFTR protein upregulators, primary screen, cell-based, HeLa F508del-CFTR, immunofluorescence, viability (AID 1224863). HeLa F508del-CFTR, immunofluorescence total CFTR, 24 h; by the record results were divided by relative cell number; some inactives read as strong as hits. calls, or highest fold increase where a dose series was run. hit rate 0.1% among 10,000; in the data nearly all actives have a first-pass fold increase above 1.5; a few of its hits are not listed in these tables;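 further: total CFTR protein by anti-CFTR immunofluorescence in fixed cells; first pass at 25 µM or 10 µg/mL by library and series up to twice that; 1 = untreated cells; first-pass hits also needed half or more of the cells alive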
# total CFTR fold 25 µM = also measured in total CFTR; calls as there; fold increase; measured here: primary screen single dose 25 uM; library dosed in µM
# total CFTR fold 10 ug/mL = recorded beside total CFTR, whose call it bears; fold increase; measured here: primary screen 10 ug/mL
# total CFTR viability 25 µM = also measured in total CFTR; calls as there; viability, %; measured here: primary viability 25 uM; library dosed in µM;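 0% = killed and 100% = untreated cells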
# total CFTR viability 10 ug/mL = recorded beside total CFTR, whose call it bears; viability, %; measured here: primary viability 10 ug/mL;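 0% = killed and 100% = untreated cells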
# An asterisk follows results filed as active; i = inactive; / = not tested or not shown; & = joins results of further samples. Only part of the results is shown. The share of hits here may be higher or lower than overall.
SMILES,total CFTR,total CFTR fold 10 ug/mL,total CFTR viability 10 ug/mL,others
C#C[C@]1(O)CCC2C3CCC4=Cc5oncc5C[C@]4(C)C3CC[C@@]21C (stereo partly drawn),i,/,/,total CFTR fold 25 µM=0.95;total CFTR viability 25 µM=85
Nc1ccc(Sc2ccc(Cl)cc2)cc1,i,1,82,
CC(C)Cn1c(N)c(C(=O)CSc2nnnn2C2CC2)c(=O)[nH]c1=O,i,0.94,109,
CC1CN(C2CCN(S(=O)(=O)c3ccc(Cl)cc3)CC2)CC(C)O1 (stereo not drawn),i,0.96,97,
O=C(O)CC1Sc2nnc(C3CCCO3)n2N=C1c1ccc(F)cc1 (stereo not drawn),i,0.94,102,
Cn1c(=O)c2c(ncn2Cc2ccccc2C(F)(F)F)n(C)c1=O,i,0.88,87,
Cc1c(Cl)cc(S(=O)(=O)N(CC2CCOC2)C2CC2)cc1[N+](=O)[O-] (stereo not drawn),i,1.1,97,
Cn1c(SCc2cc(Cl)c3c(c2)OCO3)nnc1-c1ccc(Cl)cc1,i,0.91,93,
COc1ccc(-n2nnnc2Sc2nnnn2-c2ccccc2)cc1,i,1.2,73,
COc1cc(OC)c(OC)cc1CNC(=O)NCC12CC3CC(CC(C3)C1)C2,i,0.91,77,
O=C(OCc1csnn1)c1ccc(F)cc1Br,i,1.1,107,
Brc1cc(CSc2nncn2-c2ccccc2)cc2c1OCO2,i,0.99,90,
Cc1[nH]c(C(=O)OCC(=O)NC2CC2)c(C)c1C(=O)OC(C)C,i,0.97,84,
CO[C@@H]1[C@@H](OC(N)=O)[C@H](O)[C@H](Oc2ccc3c(O)c(NC(=O)c4ccc(O)c(CC=C(C)C)c4)c(=O)oc3c2C)OC1(C)C,i,/,/,total CFTR fold 25 µM=0.99;total CFTR viability 25 µM=104
CC(=O)c1c(C)[nH]c(C(=O)C(C)OC(=O)c2ccc3c(c2)NC(=O)C(C)S3)c1C (stereo not drawn),i,0.89,87,
COC(=O)c1cnc(NC(=O)C2CCC2)s1,i,1.1,93,
CSc1ccc(OCC(=O)c2[nH]c(C)c(C(C)=O)c2C)cc1,i,0.86,77,
NC(CO)C(O)c1ccc([N+](=O)[O-])cc1 (stereo not drawn),i,1,107,
NCc1ccc(S(=O)(=O)NC2CC2)cc1,i,1.2,93,
COc1ccc(C2CCCN2Cc2nc(-c3ccc(F)cc3)no2)cc1OC (stereo not drawn),i,0.97,90,

# By substructure, the compounds so far containing a nitro group on carbon (2)
SMILES,total CFTR,total CFTR fold 10 ug/mL,total CFTR viability 10 ug/mL,others
Cc1c(Cl)cc(S(=O)(=O)N(CC2CCOC2)C2CC2)cc1[N+](=O)[O-] (stereo not drawn),i,1.1,97,
NC(CO)C(O)c1ccc([N+](=O)[O-])cc1 (stereo not drawn),i,1,107,

# (list continues)
SMILES,total CFTR,total CFTR fold 10 ug/mL,total CFTR viability 10 ug/mL,others
CCOC(=O)N1CCc2nc3sc4c(c3c(-c3ccccc3)c2C1)CCCC4,i,0.94,81,
CN(Cn1nc(-c2ccncc2)n(-c2ccc(F)cc2)c1=S)C1CCCCC1,i,1.2,114,
C=CC[C@@H]1/C=C(\C)C[C@H](C)C[C@H](OC)[C@H]2O[C@@](O)(C(=O)C(=O)N3CCCC[C@H]3C(=O)O[C@H](/C(C)=C/C3CC[C@@H](O)[C@H](OC)C3)[C@H](C)[C@@H](O)CC1=O)[C@H](C)C[C@@H]2OC (stereo partly drawn),i,/,/,total CFTR fold 25 µM=0.94;total CFTR viability 25 µM=87
Nc1nc(F)nc2c1ncn2[C@@H]1O[C@H](COP(=O)(O)O)[C@@H](O)[C@@H]1O,i,/,/,total CFTR fold 25 µM=1.4&1.3;total CFTR viability 25 µM=114&92
CCN(Cc1ccc2c(c1)OCO2)S(=O)(=O)Cc1ccccc1,i,0.97,80,
CC(C)(C)OC(=O)N1CCCC(C(=O)NC2CCCNC2)C1 (stereo not drawn),i,0.87,88,
N=C(N)c1ccc(OCCCCCOc2ccc(C(=N)N)cc2)cc1,i,/,/,total CFTR fold 25 µM=0.9&0.89;total CFTR viability 25 µM=81&74
CC1CN(Cn2nc(-c3cccs3)oc2=O)CCO1 (stereo not drawn),i,0.97,105,
CCC1CCc2nc(N)sc2C1 (stereo not drawn),i,0.81,81,
O=c1c2ccccc2nc(SCc2ccccn2)n1CCC1=CCCCC1,i,0.8,81,
CNc1snc(C)c1C(=O)NCC(c1ccsc1)N(C)C (stereo not drawn),i,1,90,
C=CCNC(=O)NC(=O)CSc1ncnc2sc3c(c12)CCCC3,i,0.99,95,
CC(=O)c1c(C)[nH]c(C(=O)OCC(=O)NC(C)C)c1C,i,0.96,88,
CC(C)CN(CC(C)C)CN1C(=O)NC(C)(c2ccc3c(c2)CCC3)C1=O (stereo not drawn),i,1,97,
CCN(CC)C/C=C/c1c(F)c(F)c(NCCCOC)c(F)c1F,i,1.1,104,
O=C(CSc1nnnn1C1CCCCC1)C12CC3CC(CC(C3)C1)C2,i,0.92,102,
COc1ccc(C23CC4CC(CC(C(=O)OC5CCOC5=O)(C4)C2)C3)cc1 (stereo not drawn),i,1.1,108,
O=S(=O)(c1cc(Cl)ccc1Cl)N1CCC(OCc2ccccc2)CC1,i,1,82,
Cc1cc(C2CCCN2CC(=O)NCCC#N)no1 (stereo not drawn),i,1,91,
COc1ccc2nc(C)cc(N3CCCC3c3nc4ccccc4s3)c2c1 (stereo not drawn),i,0.87,105,

# Reprinted from above for reference:
SMILES,total CFTR,total CFTR fold 10 ug/mL,total CFTR viability 10 ug/mL,others
C=CC[C@@H]1/C=C(\C)C[C@H](C)C[C@H](OC)[C@H]2O[C@@](O)(C(=O)C(=O)N3CCCC[C@H]3C(=O)O[C@H](/C(C)=C/C3CC[C@@H](O)[C@H](OC)C3)[C@H](C)[C@@H](O)CC1=O)[C@H](C)C[C@@H]2OC (stereo partly drawn),i,/,/,total CFTR fold 25 µM=0.94;total CFTR viability 25 µM=87
Nc1nc(F)nc2c1ncn2[C@@H]1O[C@H](COP(=O)(O)O)[C@@H](O)[C@@H]1O,i,/,/,total CFTR fold 25 µM=1.4&1.3;total CFTR viability 25 µM=114&92
CCN(Cc1ccc2c(c1)OCO2)S(=O)(=O)Cc1ccccc1,i,0.97,80,
CC(C)(C)OC(=O)N1CCCC(C(=O)NC2CCCNC2)C1 (stereo not drawn),i,0.87,88,
N=C(N)c1ccc(OCCCCCOc2ccc(C(=N)N)cc2)cc1,i,/,/,total CFTR fold 25 µM=0.9&0.89;total CFTR viability 25 µM=81&74
CC1CN(Cn2nc(-c3cccs3)oc2=O)CCO1 (stereo not drawn),i,0.97,105,
CCC1CCc2nc(N)sc2C1 (stereo not drawn),i,0.81,81,
O=c1c2ccccc2nc(SCc2ccccn2)n1CCC1=CCCCC1,i,0.8,81,
CNc1snc(C)c1C(=O)NCC(c1ccsc1)N(C)C (stereo not drawn),i,1,90,
C=CCNC(=O)NC(=O)CSc1ncnc2sc3c(c12)CCCC3,i,0.99,95,
CC(=O)c1c(C)[nH]c(C(=O)OCC(=O)NC(C)C)c1C,i,0.96,88,
CC(C)CN(CC(C)C)CN1C(=O)NC(C)(c2ccc3c(c2)CCC3)C1=O (stereo not drawn),i,1,97,
CCN(CC)C/C=C/c1c(F)c(F)c(NCCCOC)c(F)c1F,i,1.1,104,
O=C(CSc1nnnn1C1CCCCC1)C12CC3CC(CC(C3)C1)C2,i,0.92,102,
COc1ccc(C23CC4CC(CC(C(=O)OC5CCOC5=O)(C4)C2)C3)cc1 (stereo not drawn),i,1.1,108,
O=S(=O)(c1cc(Cl)ccc1Cl)N1CCC(OCc2ccccc2)CC1,i,1,82,
Cc1cc(C2CCCN2CC(=O)NCCC#N)no1 (stereo not drawn),i,1,91,
COc1ccc2nc(C)cc(N3CCCC3c3nc4ccccc4s3)c2c1 (stereo not drawn),i,0.87,105,

# (next part)
SMILES,total CFTR,total CFTR fold 10 ug/mL,total CFTR viability 10 ug/mL,others
O=[N+]([O-])c1ccccc1N1CCN(c2nc(-c3ccncc3)nc3ccccc23)CC1,i,1.1,94,
CC[C@H]1OC(=O)[C@H](C)[C@@H](O[C@H]2C[C@@](C)(OC)[C@@H](O)[C@H](C)O2)[C@H](C)[C@@H](O[C@@H]2O[C@H](C)C[C@H](N(C)C)[C@H]2O)[C@](C)(OC)C[C@@H](C)C(=O)[C@H](C)[C@@H](O)[C@]1(C)O,i,/,/,total CFTR fold 25 µM=1.1&1.1&1.1;total CFTR viability 25 µM=88&82&99
c1ccc(COc2cccc(Nc3ccc4nnnn4n3)c2)nc1,1.8,2.2,84,
CC(SC(F)(F)F)C(=O)Nc1nccs1 (stereo not drawn),i,0.86,91,
NC(N)=NCC1COC2(CCCCC2)O1 (stereo not drawn),i,/,/,total CFTR fold 25 µM=1.1;total CFTR viability 25 µM=85
c1ccc(-n2nnnc2N2CCN(Cc3ccc4c(c3)OCCO4)CC2)cc1,i,0.96,98,
Cc1ccc(S(=O)(=O)N2CCN(C(=O)C3CCC3)CC2)s1,i,1,101,
Cc1nn(CCS(=O)(=O)N(C)C)c(C)c1[N+](=O)[O-],i,1,106,
Brc1ccc(SCc2nc(NCc3ccccn3)c3c4c(sc3n2)CCCC4)cc1,i,1.3,94,
Nc1nc(N)nc(CN2CCN(S(=O)(=O)N3CCCCCC3)CC2)n1,i,1.1,86,
CCS(=O)(=O)N1CCC(NC(=O)C2(c3ccc4c(c3)OCCO4)CCCC2)CC1,i,0.86,86,
CC(C)C(NS(=O)(=O)c1cc(F)cc(F)c1)c1nccn1C (stereo not drawn),i,0.94,85,
O=C1CN(C(=O)COC(=O)c2cc(=O)c3ccccc3o2)c2ccccc2N1,i,1.2,82,
CC[C@H]1CN2CCc3cc(OC)c(OC)cc3C2C[C@@H]1CC1NCCc2cc(OC)c(OC)cc21 (stereo partly drawn),i,/,/,total CFTR fold 25 µM=0.64;total CFTR viability 25 µM=52
